# Screens deposited in PubChem BioAssay by National Center for Advancing Translational Sciences (NCATS).
# VACV mCherry inh: qHTS for Stage-Specific Inhibitors of Vaccinia Orthopoxvirus: mCherry Reporter Primary qHTS; Vaccinia virus mCherry reporter infection, fluorescence; about a quarter of the inactives have no number; Potency, µM (series often up to 36.5 µM), for inactives: top-dose activity change, negative = inhibition, actives largely listed as inhibitors; 310,000 tested, 0.63% active; AID 720579, 2013; active = well fitted inhibition curve with a large enough effect; inconclusive = small, poorly fitted or top-dose-only effect; inactive = no such curve, though single readings can be large or run the other way; tested in A549 cells; note: nearly all actives have a fitted effect of over 35% in size; inactives centre near -10
# VACV Venus inh: qHTS for Stage-Specific Inhibitors of Vaccinia Orthopoxvirus: Venus Reporter Primary qHTS. Vaccinia virus Venus reporter expression, fluorescence. Potency, µM (titrated, usually from 36.5 µM), for the others: top-dose activity change, negative = inhibition, most hits filed as inhibitors. 330,000 tested, 0.46% active; active means well fitted inhibition curve with a large enough effect; inconclusive means small, poorly fitted or top-dose-only effect; inactive means no such curve, though single readings can be large or run the other way; tested in A549 cells; note: nearly all actives have a fitted effect of over 30% in size; inactives centre near -10
# * hit, by the source's call; i = inactive; ? = inconclusive; / = not tested or not shown; [ ] = another dose, or the depositor's remark. % is set by controls: 0 for no effect and ±100 for the full control effect; potency is the fitted concentration of half-maximal effect. Not a hit list (roughly 0.88% active in at least one column).
# Start of the data: the first 21 compounds as a preview:
SMILES,VACV mCherry inh,VACV Venus inh
CCN(CC)CCOCCOc1ccccc1F,i,-8%
C=CCn1c(SCC(=O)NCc2ccco2)nc2ccccc2c1=O,i,-13%
COc1cc2c(cc1OC)C(C)N(C(=O)C(NC(=O)c1ccccc1)C(C)C)CC2 (centres undefined),36%[activator],1%
Cc1cc(NC(=O)CC2CCCC2)ccc1Br,-7%,-7%
COCCNCC(=O)Nc1ccc(C)c(S(=O)(=O)N2CCCCC2)c1,-6%,-9%
N#Cc1c(N)[nH]c(C(=O)c2ccccc2)c1-c1ccc(Cl)cc1,-13%,-9%
O=C1CC(c2nnc(Cc3ccc(Cl)cc3)o2)CN1c1ccccc1 (centres undefined),-10%,-1%
CO[C@@H]1CN(C)C(=O)c2cc(NC(=O)NC3CCCCC3)ccc2OC[C@@H](C)N(CCc2ccccc2)C[C@H]1C,-9%,?
Cc1ccccc1N(CC(=O)NCc1ccncc1)S(C)(=O)=O,-6%,8%
CCN(CC)c1nn2c(=O)c(C(=O)NCc3ccc(N(C)C)cc3)cnc2s1,-12%,-4%
CC(C)[C@H](NS(=O)(=O)c1ccccc1)C(=O)Nc1ccccc1N1CCOCC1,i,-7%
COc1ccccc1CCN=C(N)NS(=O)(=O)c1ccc(F)cc1,-5%,-5%
O=C(O)c1cc2ccccc2n1-c1ccccc1,-3%,-4%
Cc1sc(NC(=O)Cc2ccc3c(c2)OCO3)nc1-c1ccc2c(c1)CCN2C(=O)c1ccccc1F,-4%,-24%
O=C(c1ccc(Cl)s1)N1CCN(c2nc3ccccc3s2)CC1,-9%,-14%
Cc1noc(N)c1C(=O)Nc1ccc(F)cc1,-5%,-17%
COc1cc(CNc2ccc(N3CCCC3)cc2)cc(Cl)c1OC,-6%,-11%
CC1CCN(S(=O)(=O)c2ccc3c(c2)CCN3C(=O)Nc2cccc(Br)c2)CC1,-16%,-15%
O=C(Nc1ccccc1N1CCCC1)c1cccc(S(=O)(=O)N2CCOCC2)c1,?,-7%
C/C(Cn1nc([N+](=O)[O-])cc1C)=N\NC(=O)c1ccc(O)cc1O,/,12%
Cc1ccc(-c2nnc(C3CCN(S(=O)(=O)c4ccc(C)c(C)c4)CC3)o2)cc1,-6%[7.34 µM],-7%[7.34 µM]

# The list itself, from the first entry:
SMILES,VACV mCherry inh,VACV Venus inh
CCN(CC)CCOCCOc1ccccc1F,i,-8%
C=CCn1c(SCC(=O)NCc2ccco2)nc2ccccc2c1=O,i,-13%
COc1cc2c(cc1OC)C(C)N(C(=O)C(NC(=O)c1ccccc1)C(C)C)CC2 (centres undefined),36%[activator],1%
Cc1cc(NC(=O)CC2CCCC2)ccc1Br,-7%,-7%
COCCNCC(=O)Nc1ccc(C)c(S(=O)(=O)N2CCCCC2)c1,-6%,-9%
N#Cc1c(N)[nH]c(C(=O)c2ccccc2)c1-c1ccc(Cl)cc1,-13%,-9%
O=C1CC(c2nnc(Cc3ccc(Cl)cc3)o2)CN1c1ccccc1 (centres undefined),-10%,-1%
CO[C@@H]1CN(C)C(=O)c2cc(NC(=O)NC3CCCCC3)ccc2OC[C@@H](C)N(CCc2ccccc2)C[C@H]1C,-9%,?
Cc1ccccc1N(CC(=O)NCc1ccncc1)S(C)(=O)=O,-6%,8%
CCN(CC)c1nn2c(=O)c(C(=O)NCc3ccc(N(C)C)cc3)cnc2s1,-12%,-4%
CC(C)[C@H](NS(=O)(=O)c1ccccc1)C(=O)Nc1ccccc1N1CCOCC1,i,-7%
COc1ccccc1CCN=C(N)NS(=O)(=O)c1ccc(F)cc1,-5%,-5%
O=C(O)c1cc2ccccc2n1-c1ccccc1,-3%,-4%
Cc1sc(NC(=O)Cc2ccc3c(c2)OCO3)nc1-c1ccc2c(c1)CCN2C(=O)c1ccccc1F,-4%,-24%
O=C(c1ccc(Cl)s1)N1CCN(c2nc3ccccc3s2)CC1,-9%,-14%
Cc1noc(N)c1C(=O)Nc1ccc(F)cc1,-5%,-17%
COc1cc(CNc2ccc(N3CCCC3)cc2)cc(Cl)c1OC,-6%,-11%
CC1CCN(S(=O)(=O)c2ccc3c(c2)CCN3C(=O)Nc2cccc(Br)c2)CC1,-16%,-15%
O=C(Nc1ccccc1N1CCCC1)c1cccc(S(=O)(=O)N2CCOCC2)c1,?,-7%
C/C(Cn1nc([N+](=O)[O-])cc1C)=N\NC(=O)c1ccc(O)cc1O,/,12%
Cc1ccc(-c2nnc(C3CCN(S(=O)(=O)c4ccc(C)c(C)c4)CC3)o2)cc1,-6%[7.34 µM],-7%[7.34 µM]
O=C(COC(=O)c1cccc(Cl)c1Cl)NCCN1C(=O)CSC1=O,-12%,-6%
Cc1cc(N2CCCC2)nc(-c2ccccc2O)n1,-12%[1.46 µM],-7%
CCN(CC(=O)Nc1c(F)cccc1F)C(=O)C1CCC1,-2%,-3%
CC(=O)c1ccc(N/C=C\C(=O)c2ccc(C)cc2)cc1,-2%,-6%
COc1cccc(CN2CCN(S(=O)(=O)c3ccc(Cl)s3)CC2)c1,-2%,-19%
O=C(O)C1CC(O)CN1S(=O)(=O)c1ccc2ccccc2c1 (centres undefined),-6%,-7%
O=C(Cc1ccccc1)N1CCC(c2ccccc2)C1 (centres undefined),-23%,-14%
C[C@@H]1CN([C@H](C)CO)S(=O)(=O)c2ccc(C#Cc3ccccc3F)cc2O[C@@H]1CN(C)C(=O)Cc1ccccc1,?,?
COc1cc(C(=S)N2CCCC2)ccc1OCC(N)=O,-14%,-2%
CCc1nn(CCCC(=O)NCc2ccccc2C)c(=O)c2cc3occc3n12,-15%,-12%
COc1cc(/C=N/NC(=O)COc2cccc(F)c2)ccc1OS(=O)(=O)c1ccc(C)cc1,i,-27%
CCCN(C(=O)Cc1c(C(=O)O)[nH]c2ccc(Cl)cc12)c1ccc(OCC)cc1,-5%,-4%
COc1ccc(C(=O)C2CC2)cc1,-13%,-16%
Cc1cccc(C(=O)NNC(=O)c2ccc(Br)cc2)c1,9%,7%
COc1ccccc1C1=CC(=O)CCC1,-12%,-15%
O=C(Cn1cncn1)NCCCc1ccccc1,2%,-7%
COc1ccccc1N(CC(=O)NC1CCCCC1)C(=O)CCC(=O)Nc1ccccn1,/,18%
CCCCCCCn1c2c(c(=N)c3c1CCC3)CCCC2,?,?
CC1(c2nnc(-c3ccccc3)o2)CC(c2c(Cl)cccc2Cl)=NO1 (centres undefined),-11%,-15%
COc1ccc(-c2cn3nc(N4CCC(C(=O)Nc5cc(Cl)ccc5C)CC4)sc3n2)cc1,-13%,-17%
O=C(c1ccc(-n2cnnn2)cc1)N1CCN(C(c2ccccc2)c2ccccc2)CC1,-27%,-18%
O=C(C1=C[C@H](C2CCCCC2)C[C@H](OCCCCO)O1)N1CCOCC1,-7%,-5%
Cc1ccc2c(c1)[C@H]1[C@H](CO2)[C@H](c2ccccc2)[C@]2(C)C(=O)Nc3cc(Cl)ccc3C(=O)N12,?,-28%
CC(=O)Nc1nc(SCC(=O)NCC2CCCO2)[nH]c(=O)c1NC(=O)c1cccs1 (centres undefined),-10%,?

# Continued, overlapping the part above by 2 compounds.
SMILES,VACV mCherry inh,VACV Venus inh
Cc1ccc2c(c1)[C@H]1[C@H](CO2)[C@H](c2ccccc2)[C@]2(C)C(=O)Nc3cc(Cl)ccc3C(=O)N12,?,-28%
CC(=O)Nc1nc(SCC(=O)NCC2CCCO2)[nH]c(=O)c1NC(=O)c1cccs1 (centres undefined),-10%,?
COc1ccc(C(=O)N(Cc2cccs2)C2CCS(=O)(=O)C2)cc1 (centres undefined),-3%,-2%
N#CN=c1snc(-c2ccccc2)n1-c1ccc(Br)cc1,3.2µM*,?
CCOC(=O)c1cnc2ccc(F)cc2c1Nc1ccc2c(c1)OCCO2,-16%,-23%
Cc1cc(C)n2nc(S(=O)(=O)N(C)c3ccccc3)nc2n1,9%,2%
S=C(NNC(=S)NC1CC2C=CC1C2)NC1CC2C=CC1C2 (centres undefined),?,-21%
COc1ccccc1N1CCN(C(=O)c2cc3c(C)nc4ccccc4c3o2)CC1,?,?
Cc1cc(=O)oc2cc(OCC(O)CN3CCc4ccccc4C3)ccc12 (centres undefined),/,-7%
CCC(C)n1c(SCc2ccc(F)cc2Cl)nc2ccsc2c1=O (centres undefined),-8%,-7%
CCCS(=O)(=O)NC(=O)C1(C)CCN(C(=O)c2cccc(C(F)(F)F)c2)C1 (centres undefined),-14%,-17%
Cn1c(=O)[nH]c(=O)c2c1nc(CN1CCN(c3cccc(Cl)c3)CC1)n2Cc1ccccc1Cl,-21%,?
CN(C)CCCNCCCNC(=O)c1ccco1,-22%,-8%
COc1ccc(-c2nc(SCC(=O)N3CCCC3)n[nH]2)cc1,i,14%
Cc1ccc(C(=O)NCC(=O)OCC(=O)Nc2cc(C)c(C)cc2[N+](=O)[O-])cc1,-8%,-15%
O=C(NCc1ccc2c(c1)OCO2)c1cccc(F)c1,/,-13%
Cc1c(C)c2ccc(OC(C)C(=O)NCCc3c[nH]c4ccccc34)cc2oc1=O (centres undefined),0%,-3%
CC(CN1CCOCC1)OC(=O)CCc1ccccc1 (centres undefined),i,-7%
COc1ccc2oc(=O)cc(CN3CCN(C(=O)c4ccccc4)CC3)c2c1,-4%,-6%
O=C(c1cc2c(ccc3ccccc32)oc1=O)N1CCCC1,-6%,-6%
COCCN1C(=O)CCC1(C)C(=O)NC1CCCC1 (centres undefined),22%,4%
COCC1CCCCN1C(=O)c1cccc(OC2CCN(C(=O)C3CC3)CC2)c1 (centres undefined),-10%,-7%
Cc1c(C(=O)Nc2cc(F)ccc2F)sc2nc(-c3ccc(F)cc3)cn12,-17%,-19%
Cc1onc(-c2ccccc2Cl)c1C(=O)NCc1ccc(F)cc1,-12%,12%
COc1cc2c(cc1OC)C1(Nc3c-2c(Cc2ccccc2)nn3-c2ccccc2)C(=O)Nc2ccccc21 (centres undefined),/,?
CCCCNC(=O)C1(C)CCN1Cc1ccc(C(=O)OCC)cc1 (centres undefined),6%,-3%
Cc1ccc([C@H]2N[C@]3(CCCN(Cc4ccccc4)C3=O)[C@H]3C(=O)N(Cc4ccccc4)C(=O)[C@@H]23)cc1,-15%,-14%
COC(=O)c1sccc1S(=O)(=O)N(CC(=O)Nc1cc(F)ccc1F)c1ccc(C)c(C)c1,-10%,-16%
OCCC1CN(Cc2cccn2-c2cccnc2)CCN1Cc1ccc(F)cc1 (centres undefined),i,-11%
CN(C)CCCC1(O)c2ccccc2CCc2ccccc21,-11%,-5%
COc1cccc(NC(=O)c2c(C(=O)Nc3ccccc3)sc3nc(C)cc(=O)n23)c1,-8%,-5%
Cc1c(NC(=O)Oc2ccccc2)sc(=S)n1C,-13%,-9%
CC1(C)CC[C@]2(C)CC[C@]3(C)C4C[C@@H]5OO[C@@]6(O5)C(CCCC6(C)C)[C@]4(C)CC[C@@]3(C)C2C1 (some centres undefined),-23%,-7%
N#Cc1ccc(NC(=O)c2cc(-c3cccc(Cl)c3)on2)cc1,4%,4%
CC(C)C(c1nnnn1Cc1ccco1)N1CCC(C(N)=O)CC1 (centres undefined),/,-2%
CCCCc1nnc(NC(=O)CS(=O)(=O)Cc2ccccc2)s1,-12%,-8%
COc1ccc(NC(=O)c2nnn(Cc3ccc(SC)cc3)c2N)c(OC)c1,-10%,-5%
Cc1ccc(C(=O)/C=C2\NCCNC2=O)cc1,-9%,-8%
Cc1ccc(NC(=O)Cn2nc(C(F)(F)F)c3c2CCCC3)cc1C,-2%,-13%
COc1ccc(Cn2cc(S(=O)(=O)c3ccc(Cl)cc3)c(=O)c3cc4c(cc32)OCO4)cc1,6%,-7%
COC(=O)c1c(-c2ccccc2)[nH]c(-c2nccc3ccccc23)c1C(=O)OC,0%,-1%
CCN1C(=O)CC(NCc2ccc(S(N)(=O)=O)cc2)C1=O (centres undefined),i,0%
COc1ccccc1NC(=O)C1CCCN(c2ncnc3c2nc2n3CCCCC2)C1 (centres undefined),-6%,-25%
O=C(N/C(=C/c1ccccc1)C(=O)N1CCOCC1)c1ccc([N+](=O)[O-])cc1,-6%,-2%
Clc1ccccc1Sc1ccc(-c2ccccn2)s1,i,-7%
O=C(NN/C(=N/S(=O)(=O)c1ccc(Cl)cc1)c1ccccc1)c1ccc(O)cc1,-15%,-7%
CCc1ccc(/C=C2\SC(=S)N(CCC(=O)Nc3cc(C)on3)C2=O)cc1,i,12%
O=C(NC(=S)Nc1ccc(Br)cc1F)C1CCCCC1,i,-11%
S=C(NCCc1ccccc1)Nc1nccs1,?,-13%
COc1ccc(S(=O)(=O)N(C)C[C@H]2Oc3c(cccc3N(C)C)C(=O)N([C@H](C)CO)C[C@@H]2C)cc1,-7%,-14%
CNC(=O)c1cc(NC(=O)CCn2nc(-c3ccc(C)cc3)c3ccccc3c2=O)ccc1OC,-15%,-11%
CN1Cc2cnnn2-c2ccccc2C1C#N (centres undefined),-24%,-23%
COc1ccc(CN(C(=O)c2oc3ccccc3c2C)C2CCS(=O)(=O)C2)cc1OC (centres undefined),/,-21%
Cc1ccc(N(Cc2ccccc2F)S(C)(=O)=O)c(C)c1,-13%,-9%
CN(C)CCN(C(=O)c1ccc2c(c1)OCCO2)c1nc2c(Cl)cccc2s1,-19%,-19%
OC[C@H]1O[C@@H](n2cnc3c(NC4CCCCC4)ncnc32)[C@H](O)[C@@H]1O,-12%,-7%
CC(C)CC(=O)Nc1nnc(S(=O)(=O)N(C)c2ccc(Cl)cc2)s1,-5%,-7%
CCCC(=O)Nc1ccc(N2CCN(C(=O)c3cccs3)CC2)cc1,-12%,?
O=C1NC(=O)N(CCNc2ncc(C(F)(F)F)cc2Cl)C(=O)C1/C=N/OCc1c(F)cccc1Cl (centres undefined),i,-13%
N/C(=N\OC(=O)CCCC(=O)O)c1ncc(C(F)(F)F)cc1Cl,-2%,-14%
